Source: PubChem
EBNA-1 inhibitor = blocks EBNA-1 binding to DNA | EBNA-1 DNA binding, fluorescence polarization | inhibition, % at 14.8 µM | 300,000 tested, 0.34% active | AID 1950; in the data active = inhibition above about 28%
LYPLA1 inh = counter-screen for PME1 inhibitors: inhibitors of human LYPLA1; O75608; recombinant LYPLA1, FP-Rh probe fluorescence polarization; inhibition, % at 5.9 µM; 320,000 tested, 0.16% active;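 active = inhibition above the mean of all tested compounds plus 3 SD, set per campaign, cut at about 14% in these data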;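 also: inhibitors block serine hydrolase probe labeling of LYPLA1 so polarization falls; 0% = enzyme with DMSO and 100% = wells lacking LYPLA1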
PREPL inhibitor = inhibits the human prolyl oligopeptidase-like enzyme. recombinant PREPL, fluorescence polarization activity-based probe. 320,000 tested, 0.68% active. AID 2751. Q4J6C6. inhibition, % at 5.96 µM; in the data active = inhibition above about 43%;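 also: 0% = enzyme with DMSO and 100% = wells lacking enzyme; many of its hits are not listed in these tables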
Target sequence (Q4J6C6 whole entry, looked up): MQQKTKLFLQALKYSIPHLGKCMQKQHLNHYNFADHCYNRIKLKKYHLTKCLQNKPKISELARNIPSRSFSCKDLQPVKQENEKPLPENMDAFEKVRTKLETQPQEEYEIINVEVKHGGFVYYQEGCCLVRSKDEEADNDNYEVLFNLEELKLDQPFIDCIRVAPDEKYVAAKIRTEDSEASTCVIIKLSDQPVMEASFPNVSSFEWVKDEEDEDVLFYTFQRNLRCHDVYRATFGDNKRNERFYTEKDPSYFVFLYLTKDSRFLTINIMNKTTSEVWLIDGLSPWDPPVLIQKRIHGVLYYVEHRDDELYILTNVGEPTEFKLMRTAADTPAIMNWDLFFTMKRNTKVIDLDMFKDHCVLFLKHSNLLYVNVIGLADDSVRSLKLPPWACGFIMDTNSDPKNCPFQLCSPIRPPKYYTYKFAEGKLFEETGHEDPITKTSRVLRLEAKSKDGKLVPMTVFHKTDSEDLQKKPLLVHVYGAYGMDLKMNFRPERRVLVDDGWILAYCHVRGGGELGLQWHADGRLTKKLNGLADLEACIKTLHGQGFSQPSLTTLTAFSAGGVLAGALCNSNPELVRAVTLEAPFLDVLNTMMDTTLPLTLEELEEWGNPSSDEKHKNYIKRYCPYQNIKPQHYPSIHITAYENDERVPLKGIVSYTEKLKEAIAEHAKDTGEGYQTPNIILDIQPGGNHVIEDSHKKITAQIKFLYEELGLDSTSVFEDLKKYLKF
PAFAH1B2 inh = blocks human PAF acetylhydrolase 1b catalytic subunit 2. P68402. recombinant PAFAH1B2, FP-rhodamine activity probe, fluorescence polarization. inhibition, % at 3.39 µM. 340,000 tested, 1.2% active. AID 492953;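 active = inhibition above the mean of all tested compounds plus 3 SD, cut at about 24% in these data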;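 also: 0% = enzyme with DMSO and 100% = wells lacking PAFAH1B2; many of its hits are not listed in these tables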
PAFAH1B3 inh = inhibitors of human PAFAH1B3 | Q15102 | recombinant PAFAH1B3, FP-rhodamine probe, fluorescence polarization | inhibition, % at 3.39 µM | 340,000 tested, 0.28% active | AID 492972;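 active = inhibition above the screen-wide average of all tested compounds plus 3 SD, cut at about 25% in these data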;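 also: 0% = enzyme with DMSO only and 100% = wells lacking PAFAH1B3 protein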
ZTA DNA inh = blocks Epstein-Barr virus ZTA, an EBNA-1 counter-screen; inhibition, % at 11 µM; ZTA-DNA binding, fluorescence polarization; P03206; 320,000 tested, 0.15% active; in the data active = inhibition above about 33%
LYPLA2 counter = blocks human lysophospholipase 2, a PME1 counter-screen; AID 2177; 320,000 tested, 0.38% active; inhibition, % at 5.9 µM; recombinant LYPLA2, FP-Rh probe fluorescence polarization;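 active = inhibition above the screen-wide mean plus 3 SD, limit set per campaign, cut at about 26% in these data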;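 also: 0% = LYPLA2 with DMSO and 100% = wells lacking LYPLA2 enzyme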
PAFAH2 inh = PAFAH2 (human) inhibition. Q99487. recombinant PAFAH2, FP-rhodamine activity probe, fluorescence polarization. inhibition, % at 3.39 µM. 340,000 tested, 0.99% active;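 active = inhibition above the mean over all tested compounds plus 3 SD, cut at about 30% in these data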;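 also: inhibitors block probe labeling of enzyme so polarization drops; 0% = enzyme with DMSO and 100% = wells lacking PAFAH2 protein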
Starred values were filed as active, the others as inactive; · = no result given. A portion of the library; count on the stated rates, not on these rows.

SMILES	EBNA-1 inhibitor	LYPLA1 inh	PREPL inhibitor	PAFAH1B2 inh	PAFAH1B3 inh	ZTA DNA inh	LYPLA2 counter	PAFAH2 inh
CCOc1ccc2nc(Nc3nc(CSc4nnnn4-c4ccccc4)cc(=O)[nH]3)nc(C)c2c1	-7	-2	11	-5	1	-14	-5	-10
Cc1cccc(N2C(=O)CC(N3CCOCC3)C2=O)c1 (stereo not given)	4	0	1	-2	5	-5	2	-2
CC(=O)NCCC(=O)Nc1cc(S(=O)(=O)Nc2ccc(Cl)cc2)ccc1N1CCCC1	-16	-4	-9	4	-1	1	-4	-1
CN(C(=O)COc1cc(=O)n(C)c2ccccc12)c1ccc(Br)cc1	4	-9	-2	12	9	9	-13	3
CC(CC(=O)c1cccs1)CC(=O)c1cccs1	2	-5	3	1	2	-3	3	1
CC(C)Cn1c(N)c(C(=O)COC(=O)CCNS(=O)(=O)c2ccccc2)c(=O)n(C)c1=O	-3	-2	22	2	3	4	-6	7
O=C(/C=C/c1cccc([N+](=O)[O-])c1)N1CCOCC1	3	-4	4	4	-11	4	-1	1
CC(=O)N1CCc2cc(S(=O)(=O)Nc3ccc(C)cc3C)ccc21	-16	-2	2	13	-4	-5	0	3
Cc1cc(SCC#N)n2nc(C)c(-c3ccc(Cl)cc3)c2n1	-3	0	1	-1	-3	-6	-1	-1
Cc1ccc(NS(=O)(=O)c2ccc(-c3csc(C)n3)s2)c(C)c1	4	-2	-12	0	4	12	-8	5
COc1cc2c(cc1NC(=O)CCCCCN1C(=O)CCC1=O)oc1ccccc12	3	4	15	-1	2	1	5	3
Cc1ccc(NS(=O)(=O)c2ccc(C)c(C(=O)NCC(c3ccccc3)N(C)C)c2)cc1 (stereo not given)	·	1	5	4	2	-5	1	5
Cc1ccc(NS(=O)(=O)c2ccc(C(=O)NCc3ccc(S(N)(=O)=O)cc3)cc2)cc1	·	·	-9	6	10	·	·	4
Cc1sc2nc(CN3CCCC3)nc(N3CCN(S(=O)(=O)c4cccs4)CC3)c2c1C	1	-2	-2	-1	2	-15	0	2
CNC(=O)C1CC(=O)N(CCc2ccc(C)cc2)C1 (stereo not given)	0	4	5	-2	6	0	1	-6
O=C(NC1CCCC1)c1ccc(CSCc2ccccc2F)o1	3	-1	22	7	7	2	9	3
CCOc1ccc(NS(=O)(=O)c2ccc(C(=O)NCC3(N4CCCCC4)CCCCC3)cc2)cc1	0	0	2	5	8	5	3	-12
Cc1ccc(NS(=O)(=O)c2cccc(C(=O)NCC(c3cccs3)N3CCOCC3)c2)cc1 (stereo not given)	·	-3	-12	0	6	14	-6	3
Cc1ccc(C)c(NS(=O)(=O)c2ccc(OCC(=O)NCc3ccccn3)cc2)c1	1	-2	3	0	-5	-10	2	0
Cc1ccc(-n2cc(-c3ccccc3)c3c(NN4CCOCC4)ncnc32)cc1	-14	2	13	1	7	-6	0	-10
CCOC(=O)c1ccc(NC(=O)CSc2nc3c(c(=O)n2-c2ccccc2OC)SCC3)cc1	1	0	5	-1	-1	0	4	-8
COc1ccc(NS(=O)(=O)c2cccc(C(=O)N/N=C/c3ccccn3)c2)cc1	5	-4	7	4	3	-5	-8	1
COc1ccc(NS(=O)(=O)c2cccc(C(=O)N/N=C/c3cccs3)c2)cc1	15	-15	9	-3	-4	8	-29	-11
CC(C)(C)OC(=O)C1=C(CO)CS[C@@H]2[C@H](NC(=O)Cc3ccccc3)C(=O)N12	·	·	·	4	5	·	·	0
CCOC(=O)C1CCN(CC(C)(C)NS(=O)(=O)c2ccc(Cl)cc2)CC1	-4	2	2	2	11	-3	3	-4
SMILES	EBNA-1 inhibitor	LYPLA1 inh	PREPL inhibitor	PAFAH1B2 inh	PAFAH1B3 inh	ZTA DNA inh	LYPLA2 counter	PAFAH2 inh
O=C(/C=C/c1ccc(Cl)cc1Cl)NCc1ccco1	6	-3	-6	2	-2	6	5	6
Cc1ccc(S(=O)(=O)Nc2nc(C)c(C)s2)cc1	-12	-3	10	0	1	-13	-2	-3
CC(=O)N1CCCc2cc(S(=O)(=O)Nc3cccc(C)c3C)ccc21	3	-1	7	1	7	-8	4	-2
CCCOC(=O)c1cccc(NC(=O)C(C)(C)C)c1	-19	1	7	8	0	-4	8	1
CN1CCN(C(=O)/C=C/c2ccc3c(c2)OCO3)CC1	1	-5	15	1	-1	2	1	-7
O=C(CCN1CCCC1)c1cccs1	-6	1	13	6	11	4	5	-6
COCCCNC(=O)COc1cc2c(c3oc(=O)c(C)c(C)c13)CCC(C)(C)O2	0	-3	7	7	-1	-1	7	68*

Complete entries, quoted from the list:
O=C(/C=C/c1ccc(Cl)cc1Cl)NCc1ccco1 is entered as EBNA-1 inhibitor: 6; LYPLA1 inh: -3; PREPL inhibitor: -6; PAFAH1B2 inh: 2; PAFAH1B3 inh: -2; ZTA DNA inh: 6; LYPLA2 counter: 5; PAFAH2 inh: 6
CN1CCN(C(=O)/C=C/c2ccc3c(c2)OCO3)CC1 is entered as EBNA-1 inhibitor: 1; LYPLA1 inh: -5; PREPL inhibitor: 15; PAFAH1B2 inh: 1; PAFAH1B3 inh: -1; ZTA DNA inh: 2; LYPLA2 counter: 1; PAFAH2 inh: -7

13 entries from above in another layout.
Compound,EBNA-1 inhibitor,LYPLA1 inh,PREPL inhibitor,PAFAH1B2 inh,PAFAH1B3 inh,ZTA DNA inh,LYPLA2 counter,PAFAH2 inh
Cc1ccc(-n2cc(-c3ccccc3)c3c(NN4CCOCC4)ncnc32)cc1,-14,2,13,1,7,-6,0,-10
CCOC(=O)c1ccc(NC(=O)CSc2nc3c(c(=O)n2-c2ccccc2OC)SCC3)cc1,1,0,5,-1,-1,0,4,-8
COc1ccc(NS(=O)(=O)c2cccc(C(=O)N/N=C/c3ccccn3)c2)cc1,5,-4,7,4,3,-5,-8,1
COc1ccc(NS(=O)(=O)c2cccc(C(=O)N/N=C/c3cccs3)c2)cc1,15,-15,9,-3,-4,8,-29,-11
CC(C)(C)OC(=O)C1=C(CO)CS[C@@H]2[C@H](NC(=O)Cc3ccccc3)C(=O)N12,·,·,·,4,5,·,·,0
CCOC(=O)C1CCN(CC(C)(C)NS(=O)(=O)c2ccc(Cl)cc2)CC1,-4,2,2,2,11,-3,3,-4
O=C(/C=C/c1ccc(Cl)cc1Cl)NCc1ccco1,6,-3,-6,2,-2,6,5,6
Cc1ccc(S(=O)(=O)Nc2nc(C)c(C)s2)cc1,-12,-3,10,0,1,-13,-2,-3
CC(=O)N1CCCc2cc(S(=O)(=O)Nc3cccc(C)c3C)ccc21,3,-1,7,1,7,-8,4,-2
CCCOC(=O)c1cccc(NC(=O)C(C)(C)C)c1,-19,1,7,8,0,-4,8,1
CN1CCN(C(=O)/C=C/c2ccc3c(c2)OCO3)CC1,1,-5,15,1,-1,2,1,-7
O=C(CCN1CCCC1)c1cccs1,-6,1,13,6,11,4,5,-6
COCCCNC(=O)COc1cc2c(c3oc(=O)c(C)c(C)c13)CCC(C)(C)O2,0,-3,7,7,-1,-1,7,68*
